CapD inh = inhibitors of Bacillus anthracis CapD enzyme. purified CapD enzyme, fluorescence intensity read-out; hits give low values; some hits fall short of the stated cut. z-score (concentration not given with the values). hit rate 0.23% among 140,000;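 active = z-score under -4 in either of two replicates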;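 also: stock transfer was 100 nL into about 40 µL; score is relative to mean and spread of the plate; one replicate is shown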
AID504770 = growth inhibitors of E. coli YBA685 in a screen for V. cholerae RctB (chromosome II replication) inhibitors; E. coli YBA685 rctB-dependent plasmid, OD600 growth, 3 h; hits give low values; z-score (test concentration not listed); hit rate 0.27% among 130,000; AID 504770;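 active = z-score under -2 on both plates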;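 also: wells of about 30 µL received 100 nL stock; score is relative to mean and SD of the test wells; the first replicate is given; strong numbers were not always called active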
The depositor's hits bear a star; . = no result given.

mol,CapD inh,AID504770
CCN(CC)S(=O)(=O)c1ccc2oc(Sc3cc(C)c(C#N)c4nc5ccccc5n34)nc2c1,.,-0.45
CSC1=N/C(=C/c2cccs2)C(=O)N1,-4*,-0.2
Cc1ccn2c(C(=O)CSc3cccc(Cl)c3Cl)c(C)nc2c1,-0.26,.
Cc1ccccc1OCCn1c(=N)n(CCO)c2ccccc21,-0.18,-0.7
Cc1sc2ncnc(-n3cnc4ccccc43)c2c1C,.,-1.8
CC(C)(NO)C(=O)c1cc(C(C)(C)C)c(O)c(C(C)(C)C)c1,0.09,-0.45
O=C1/C(=C/c2ccc(-c3ccc(Br)cc3)o2)C=C(c2ccccc2)N1c1cccc(I)c1,-0.01,.
Cc1cccc(C)c1NC(=O)CS(=O)(=O)c1cccc2nsnc12,-0.82,-0.35
O=[N+]([O-])c1ccc(S(=O)(=O)N(Cc2ccco2)CC2CCCO2)cc1 (stereo not given),-0.14,.
O=C(NCCc1c[nH]c2ccccc12)c1ccc(COc2c(F)c(F)cc(F)c2F)o1,-0.19,0.15
O=C(CN1CCN(c2ccccc2)CC1)Nc1ccccc1,0.45,-1.2
CN(C)c1ccc(C2NCC(CSc3nc(-c4cccs4)cc(C(F)(F)F)c3C#N)O2)cc1 (stereo not given),47,0.45
CCc1ccc(-c2ccc(C(=O)NNC(=O)c3c(C)noc3-c3cccs3)cc2)cc1,0.18,.
CCOC(=O)c1ccc2[nH]c3c(c2c1)CN(C)CC3,0.005,0.35
CC1CCc2c(sc(NC(=O)CSc3nccn3C)c2C#N)C1 (stereo not given),-0.59,0.9
Cc1ccc(N(c2ccc(C)cc2)c2cccnc2)cc1,8.4,-0.05
Cc1ccccc1OCC(=O)Nc1ccc(NC(=O)c2cccs2)cc1,-0.18,-0.15
Cc1cccc(NCN2C(=O)S/C(=C\c3cccc(F)c3)C2=O)c1,-1.2,0.2
CC(C)(C#N)C(O)c1ccccc1 (stereo not given),0.32,-0.05
Cn1cnc(S(=O)(=O)Nc2n[nH]c(=S)s2)c1,1.1,-0.05
C/C=C1/C(C)C(C(F)(F)F)(C(F)(F)F)C(C#N)=C(N)N1c1ccc(C(N)=O)cc1 (stereo not given),0.045,0.5
Cc1sc2sc(-c3ccccc3)c(N)[n+]2c1C,-1.4,-0.9
Cc1nn(C)c2c1c(C(F)(F)F)cc(=O)n2CC(=O)c1c(C)n(C)c2ccccc12,0,2.1
CCC1(CC)NC(=S)N(c2cccc(C)c2C)N1,0.3,.
CCOC(=O)c1[nH]c(CSc2cccc[n+]2[O-])c(C(=O)OCC)c1C,.,-1.2
COc1cc(C2NC(=O)NC(C)=C2C(=O)OCC(F)(F)F)cc(Br)c1O (stereo not given),0.02,.
COc1ccc(-c2ccc(C#N)c(=O)n2Cc2ccc([N+](=O)[O-])cc2)cc1,2.5,.
O=C(CNC1CCCCC1)N1c2ccccc2Sc2ccc(C(F)(F)F)cc21,0,.
O=C(O)C1OC(C(=O)O)C2C1C(F)(F)C2(F)F (stereo not given),.,2.1
Cc1ccccc1Cn1cnc2ccccc2c1=O,0.06,-0.15
CCOc1ccc(NC(=O)CN2C(=O)CSC(C)C2=O)cc1 (stereo not given),0.67,0.65
CC1(C)CC(NCCc2ccccc2)c2cccn21 (stereo not given),0.77,.
COC(=O)c1cc2ccsc2n1CC(=O)Nc1ccc(C)cc1Cl,0.53,0.5
O=C1N(c2ccccc2)C(=O)N(c2ccccc2)C2c3ccccc3C=CN12 (stereo not given),.,1.9
COc1ccc(-c2nc(N)nc(SC)c2C#N)cc1,0.57,-0.9
COc1cc(C(c2c(C)n(C)n(-c3ccccc3)c2=O)c2c(C)n(C)n(-c3ccccc3)c2=O)ccc1O,-0.005,.
CC(C)OC(=O)c1ccc(-n2cccn2)cc1,-0.02,-0.55
COc1ccc(NC(=O)c2ccc3c(=O)n(-c4cc(OC)ccc4OC)c(=S)[nH]c3c2)c(OC)c1,-0.12,.
COC(=O)c1c(C)oc(C)c1S(=O)(=O)NCc1ccc(OC)cc1,0.36,0.6
CC(=O)Oc1ccccc1C(=O)Nc1ccccc1C(=O)N1CCC(c2c[nH]c3ccccc23)CC1,-0.21,.

2 records drawn at random from the list so far, as already listed:
mol,CapD inh,AID504770
COc1ccc(-c2nc(N)nc(SC)c2C#N)cc1,0.57,-0.9
COc1ccc(NC(=O)c2ccc3c(=O)n(-c4cc(OC)ccc4OC)c(=S)[nH]c3c2)c(OC)c1,-0.12,.

Following part
mol,CapD inh,AID504770
N#CCOC(=O)c1cc(=O)c2ccccc2o1,.,0.25
Cc1ccc(S(=O)Cc2nc(-c3ccc(C(=O)N4CCOCC4)cc3)oc2C)cc1 (stereo not given),-0.15,-0.1
COC(=O)CCCC1C2SCC(NC(=O)c3ccccc3)(C2=O)C2(O)C(NC(=O)c3ccccc3)CSC12 (stereo not given),-0.14,.
CCOc1c(Br)cc(C2C(C(=O)N3CCOCC3)=C(C)NC3=C2C(=O)CCC3)cc1OC (stereo not given),21,.
CCOC(=O)c1cnc2ccccc2c1Nc1cccc2ccccc12,0.81,.
Clc1ccc(C=Nc2cccnc2)cc1,11,.
COC(=O)CCC(=O)c1cc(C(C)(C)C)sc1C(C)(C)C,0.52,0.85
Cc1onc(-c2ccccc2Cl)c1C(=O)OCCN1CCCC1=O,.,0.45
CN1CCN(C(=O)CSc2nc3ccccc3nc2SCC(=O)N2CCN(C)CC2)CC1,.,1.5
N#CCOC(=O)/C=C\c1ccccc1,-0.42,-0.75
C[C@@H]1CC2(CCCN2Cc2ccccc2)C[C@H]1C,0.53,-0.15
CCOC(CNC(=O)c1c[nH]c2ccc(S(=O)(=O)N(CC)c3ccc(F)cc3)cc2c1=O)OCC,2.4,.
O=C1CC2(CCN(S(=O)(=O)c3ccccc3)CC2)Oc2ccccc21,.,0.5
CCOC(=O)c1[nH]c(C)c(CN(C(C)=O)c2ccc(OCC)cc2)c1C,.,1.2
CC1=C(c2ccc(F)cc2)S(=O)(=O)N=C1Nc1ccc(C)cn1,1.2,-0.3
C=CCN1C(=O)SC(CC(=O)O)C1=O (stereo not given),.,-0.55
NCc1ccc2[nH]c(=O)[nH]c2c1,.,0.05
Cc1noc(C)c1C(=O)OCCCCN1C(=O)c2ccccc2C1=O,.,-0.05
O=C(c1cc(-c2ccccc2)n[nH]1)N1CCN(c2cccc(C(F)(F)F)c2)CC1,3.3,0.05
CC1(C)OC(=O)C2(C(=O)O1)C1C3C4CC5C6C4C1C6C2C53 (stereo not given),.,-0.1

Profiles as entered above. Order of values: CapD inh	AID504770
C/C=C1/C(C)C(C(F)(F)F)(C(F)(F)F)C(C#N)=C(N)N1c1ccc(C(N)=O)cc1 (stereo not given) across the screens: 0.045	0.5
CCC1(CC)NC(=S)N(c2cccc(C)c2C)N1 across the screens: 0.3	.
Cc1ccn2c(C(=O)CSc3cccc(Cl)c3Cl)c(C)nc2c1 across the screens: -0.26	.
CC1(C)CC(NCCc2ccccc2)c2cccn21 (stereo not given) across the screens: 0.77	.
COc1ccc(-c2nc(N)nc(SC)c2C#N)cc1 across the screens: 0.57	-0.9

(further entries)
mol,CapD inh,AID504770
Cc1cc(=O)c(C(=O)O)nn1-c1ccccc1,.,0.3
COc1ccccc1CO/N=C/c1cccn1-c1nccc(N(C)C)c1C#N,0.02,.
CC(=O)c1ccc(OCc2ccc(Cl)c(Cl)c2)c([N+](=O)[O-])c1,-0.52,.
Cn1c(C(C#N)C(=O)c2ccc(S(=O)(=O)N3CCOCC3)cc2)nc2ccccc21 (stereo not given),.,-0.95
CCc1cc2c3c([nH]c2cc1S(=O)(=O)NC1CCCC1)CCCC3=O,-0.09,0.1
COc1ccc(C(=O)C(C#N)=C(SC)SC)cc1,-1.2,-1
CCC(=O)c1ccc(OC(=O)c2ccc(N(CC)CC)cc2)cc1,0.11,0.5
Cc1ccc2c(c1)c(=O)c1ccccc1n2CC(=O)Nc1cc(Oc2ccc(F)cc2)cc([N+](=O)[O-])c1,0.9,.
COc1cc(OC)nc(-c2sc3ccccc3c2OCc2cccc(C(F)(F)F)c2)n1,3.5,.
CCOC(=O)c1sc(=S)sc1SCc1ccc(Cl)cc1,-0.08,.
CCOc1ccc(-c2c(C#N)c(N)nc3sc(C(=O)c4ccc(C)cc4)c(N)c23)cc1,0.47,.
CCCCOc1cccc2c1CCN(CC)C2=O,.,0.3
N#CC(C#N)=C1CSc2ccccc2N1,.,0.2
CCCCN(C(=O)c1c(C)[nH]c(C(=O)OCC)c1C)c1ccccc1,-0.41,0.15
COc1cc(OC)nc(/N=C/NO)n1,0.4,-0.85
O=C1NCCN1CCNS(=O)(=O)c1ccc2ccccc2c1,1.4,0.25
O=C(Cn1c(=O)oc2ccccc21)Nc1nc2c(s1)CCCC2,-0.15,-0.85
O=C(OCC1COc2ccccc2O1)c1c(F)cccc1F (stereo not given),.,-0.35
Cc1nn(-c2ccccc2)c2c1P(=S)(N1CCOCC1)OC(c1ccccc1)=N2 (stereo not given),.,1.1
O=C1CSc2sc(=S)sc2S1,.,-0.8
C(=N\n1cnnc1)/c1ccc(Nc2ccccc2)cc1,3.8,-0.7
Nc1nc(SC#CC(F)(F)F)ns1,.,-4.9*
O=S(=O)(c1ccccc1)c1nnn2c1nc(N1CCCC1)c1cc(Cl)ccc12,-0.47,-0.7
c1ccc(CN2CCN(Cc3ccccc3)C2c2c[nH]c3ccccc23)cc1,-1.5,-0.2
N/C(=N\S(=O)(=O)c1ccc(Cl)s1)c1ccccc1,-0.6,-0.5
CC(=O)c1ccccc1NC(=O)CSCC(=O)O,0.34,.
Fc1nc(F)c(F)c(SC(=S)N2CCOCC2)c1F,-2.5,1.6
c1cc2n[nH]nc2cn1,.,0.4
COc1ccc(-c2nc(NC(C)=O)c3c(=O)oc4ccccc4c3n2)cc1,-0.28,.
NS(=O)(=O)c1ccc(CCNC(=O)c2ccc3c(c2)N(Cc2ccccc2)CCS3)cc1,23,1.1
CCOC(=O)CSc1nnc(COc2cccc(C)c2)o1,.,-0.6
O=C(NCCOc1ccccc1F)c1ccccc1Nc1cccc2ccccc12,0.8,-0.7
OC(CN1CCN(Cc2ccccc2)CC1)Cn1c2ccc(Cl)cc2c2cc(Cl)ccc21 (stereo not given),0.17,.
O=C(O)CCc1nn2cc(-c3ccccc3)nc2[nH]c1=O,-0.27,.
NC(=O)c1ncoc1-c1cccc(Cl)c1,0.37,-0.7
O=C(CCCN1C(=O)c2ccccc2C1=O)Nc1ccc(S(=O)(=O)NC2CCCCC2)cc1,.,0.85
COc1ccc(Cl)cc1-n1cnc2sc(C)c(C)c2c1=O,0.64,1.9
Cc1ccccc1N(C)C(=O)Cn1cnc2onc(C)c2c1=O,-0.48,0.25
O=C(NCc1ccccc1)c1ccc2nc3[nH]c4ccccc4c3nc2c1,3.4,.
CC1CN(Cn2nc(-c3cccc(S(=O)(=O)N4CCOCC4)c3)oc2=S)CC(C)O1 (stereo not given),.,-0.25
Cc1[nH]c2ccccc2c1C(c1ccccn1)N1CCN(CCO)CC1 (stereo not given),-0.59,0
Cc1ccc(S(=O)(=O)Nc2cc(C)c3oc(=O)sc3c2)cc1,0.15,0
CCn1c(C(=O)NC2CCCCCC2)cc2oc3ccccc3c21,39,-0.3
CCOC(=O)N1CCN(C(=S)Nc2ccc(Oc3ccccc3)cc2)CC1,-0.17,-1.4
Oc1c(N=Nc2ccc3c(c2)OCO3)sc2nc3ccccc3n12,.,0.1
O=C(O)Cn1ncn2c(c(-n3cccc3)c3c4c(sc32)CCCC4)c1=O,0.17,0.75
CC(CC(=O)O)CC(=O)Nc1cccc(C(=O)O)c1 (stereo not given),-1.3,-0.45
Cc1onc(-c2ccccc2Cl)c1NC(=O)Nc1cccc(C(F)(F)F)c1,-0.61,-0.7
COc1ccccc1C(=O)N1CCCc2cc(C)ccc21,-0.14,-0.7
N#Cc1ccccc1NC(=O)CSc1nc2c(cc1C#N)CCCCC2,3.4,.

(listing goes on)
mol,CapD inh,AID504770
CCOc1ccc(NC(=O)CSC2CCCCC2)cc1,-0.17,-0.85
Cc1c(/C=C(\C#N)C(=O)Nc2ccccc2F)cc(C#N)n1C,.,0.4
COc1cc(/C=C2\N=C(c3cc(F)c(F)cc3Cl)OC2=O)cc(OC)c1OC,0.58,.
O=C(CN1C(=O)c2ccccc2C1=O)Nc1ccc(N2CCOCC2)cc1,0.52,0.5
COc1cccc(-c2nnc(SC3CCOC3=O)n2C)c1 (stereo not given),.,-0.75
N#CC1(C#N)[C@@H]2c3ccccc3C=CN2[C@@H](C(=O)c2ccc(F)cc2)[C@@H]1c1ccc(F)cc1,2.3,.
CN1CCN(c2ccc(C(F)(F)F)cc2NO)CC1,0.07,-0.6
CCN(CC)CCC1S(=O)(=O)C(C(=O)OC)C(c2ccc(OC)cc2)C(C(=O)OC)S1(=O)=O (stereo not given),-0.03,-1.1
CC1(n2c(=O)n(Cc3ccccc3)c3ccccc32)CSC1,.,-0.4
Cc1cc(C(=O)CSc2nncn2C)c(C)n1-c1ncn[nH]1,.,-0.15

Source: PubChem (ICCB-Longwood Screening Facility, Harvard Medical School)
